Screening data: PubChem BioAssay, National Center for Advancing Translational Sciences (NCATS)
TRPML1 ag: qHTS for Agonists of the Human Mucolipin Transient Receptor Potential 1 (TRPML1); Mucolipin-1 (Homo sapiens), Q9GZU1; TRPML1-expressing cells, Ca2+ dye fluorescence, FDSS; host cell line not named in the record; reference of the full effect not given here; activation, % (concentration not given with the values); actives 0.12% (n = 410,000); AID 624414, 2012; in the data active = activation above about 50%; inconclusive = about 30% to 50%; inactive = below about 30%; note: 0% is about no effect; the text of the record puts the active cut at 80%
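TRPML1-DL cells, Tet-induced overnight (~16 h, 37 degrees C), loaded 45-90 min at room temperature with Ca8 no-wash calcium dye plus quencher. FDSS fluorescence: 10 s baseline, compound pin-transfer, 110 s agonist read, then EC80 54-4 (4uM final) and 110 s antagonist read.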
PINK1 expr mod: A Quantitative High throughput Screen to Identify Chemical Modulators of PINK1 Expression. PINK1 immunofluorescence, high-content cytometry, 24 h. Potency, µM (top dose mostly 76.6 µM), for the others: at the highest dose activation (PINK1 increase), most hits filed as activators. actives 0.2% (n = 410,000). AID 624263, 2012; active = well fitted activation curve with a large enough effect; inconclusive = small, poorly fitted or top-dose-only effect; inactive = flat fitted curve, though single readings scatter; cell line not stated here;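 note: potency is the fitted concentration of half-maximal effect; % of control where 0% means no effect; nearly all actives have a fitted effect of over 65% in size; a mitochondrial uncoupler was the plate control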
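Stable cell line, 250 cells/well, 12 h attachment; compounds pinned at 5 concentrations, 24 h; CCCP control. Fixed with nuclear dye, primary antibodies 12 h at 10 degrees C, secondary plus cell stain; laser-scanning cytometer read.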
D2 agonist: Beta-Arrestin HTS for Positive Allosteric Modulators of the Human D2 Dopamine Receptor: Agonists. D(2) dopamine receptor (Homo sapiens), P14416. DiscoveRx PathHunter D2 beta-arrestin, luminescence, 90 min; 100% = 57 uM dopamine signal. activation, % (no concentration beside the values). actives 0.084% (n = 360,000); in the data active = activation above about 40%; inconclusive = about 15% to 40%; inactive = below about 15%; note: compound concentration not given in the record; the text of the record calls up to 30% inactive
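DiscoveRx PathHunter D2 beta-arrestin cells (2,100/well) attached overnight, then compound-stimulated 90 min at 37 C in HBSS/10 mM HEPES/0.1% Tween-20 buffer; beta-galactosidase complementation read by luminescence after 1 h at ambient temperature. Dopamine 57 uM final (EC100) as control.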
TRPML1 blocker: qHTS for Inhibitors of the Human Mucolipin Transient Receptor Potential 1 (TRPML1); Mucolipin-1 (Homo sapiens), Q9GZU1; TRPML1-inducible cells, Ca2+ dye fluorescence, FDSS; hits give low values; inhibition of EC80 agonist-evoked calcium signal; activity change, negative = inhibition, % (no concentration beside the values); actives 0.02% (n = 390,000); AID 624415, 2012; in the data active means activity change below about -50%; inconclusive means about -30% to -50%; inactive means above about -30%;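 note: stimulus is agonist 54-4 at its EC80 concentration; % is set by controls: 0 for no effect and ±100 for the full control effect; compound concentration not given in the record; the text of the record puts the active cut at -80%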
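TRPML1-DL cells, Tet-induced overnight (~16 h, 37 °C) at 1,500 cells/well, were loaded with Ca8 no-wash dye plus quencher for 45-90 min at room temperature. Compounds were pinned during FDSS kinetic reading; agonist 54-4 at EC80 (4 uM final) then added.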
Six1-Eya2 blk: qHTS Assay for Inhibitors of the Six1/Eya2 Interaction; AlphaScreen GST-Six1/His-Eya2 binding, biochemical; hits give low values; control for the full effect not named in the record; Homeobox protein SIX1 (Homo sapiens) + Protein phosphatase EYA2 (Homo sapiens), …; actives 0.56% (n = 360,000); activity change, % (test concentration not listed); in the data active = activity change below about -65%; inconclusive = about -30% to -65%; inactive = above about -30%; note: % is set by controls: 0 for no effect and ±100 for the full control effect; compound concentration not given in the record
Target sequence (O00167 whole entry, looked up): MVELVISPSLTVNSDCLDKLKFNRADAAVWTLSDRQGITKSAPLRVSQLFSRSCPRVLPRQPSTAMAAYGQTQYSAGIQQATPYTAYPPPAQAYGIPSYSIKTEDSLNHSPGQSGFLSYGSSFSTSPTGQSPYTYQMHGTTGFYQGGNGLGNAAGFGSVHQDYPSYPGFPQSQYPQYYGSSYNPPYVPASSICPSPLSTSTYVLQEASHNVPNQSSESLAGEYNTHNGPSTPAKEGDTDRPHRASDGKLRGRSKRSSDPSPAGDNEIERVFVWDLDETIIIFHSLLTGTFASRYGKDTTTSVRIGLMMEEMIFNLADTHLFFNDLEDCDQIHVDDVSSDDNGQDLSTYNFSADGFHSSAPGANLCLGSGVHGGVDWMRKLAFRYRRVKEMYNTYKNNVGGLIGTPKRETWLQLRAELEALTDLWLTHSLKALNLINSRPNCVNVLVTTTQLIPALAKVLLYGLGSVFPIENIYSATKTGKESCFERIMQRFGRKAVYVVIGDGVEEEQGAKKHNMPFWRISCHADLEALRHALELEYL
Target sequence (Q15475 whole entry, looked up): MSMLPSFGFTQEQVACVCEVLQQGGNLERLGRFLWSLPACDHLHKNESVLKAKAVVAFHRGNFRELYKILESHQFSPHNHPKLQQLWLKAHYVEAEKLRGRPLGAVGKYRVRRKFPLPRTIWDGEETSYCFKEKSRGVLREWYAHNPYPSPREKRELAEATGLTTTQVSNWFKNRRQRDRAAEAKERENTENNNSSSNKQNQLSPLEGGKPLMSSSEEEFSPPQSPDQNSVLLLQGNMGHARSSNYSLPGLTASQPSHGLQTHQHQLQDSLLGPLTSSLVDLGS
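GST-Six1 + His-Eya2 (5X stock: 250/500 nM); Tris pH 8.0, 300 mM NaCl, 0.05% BSA, 0.02% Tween 20; GSH donor/Ni acceptor beads; 1 h 37 °C dark; AlphaScreen readout.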
D2 potentiator: Beta-Arrestin HTS for Positive Allosteric Modulators of the Human D2 Dopamine Receptor: Potentiators; DiscoveRx D2 beta-arrestin cells, luminescence, 90 min; 100% = 57 uM dopamine signal; potentiation, % (no concentration beside the values); actives 0.23% (n = 360,000); AID 624464, 2012; active = potentiation of 50% or more; inconclusive = 30% to 50%; inactive = 30% or less;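 note: compound concentration not given in the record; tested on top of an EC20 dose of dopamine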
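PathHunter beta-arrestin assay in DiscoveRx D2 cells. Compounds were added with an EC20 of dopamine (50 nM final) for 90 min at 37 deg C. Luminescence was read 1 h after detection reagent, with 57 uM dopamine as the EC100 control.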
The depositor's hits bear a star; ? = inconclusive; nt = no result given; & = joins results of further samples; [ ] = remark or other dose.

1. COc1ccc(C(NC(=O)C2CCN(CCOc3ccc(Cl)cc3)CC2)c2cccs2)cc1 (stereo unspecified)
2. COc1ccc(-n2cnnc2SCc2csc(-c3ccccc3)n2)cc1
3. CCOC(=O)c1c(NC(=O)Cn2cnc3sc(C)c(-c4ccccc4)c3c2=O)sc(C)c1C
4. Cn1nc(-c2ccc(Cl)cc2)cc1NC(=O)Nc1ccccc1
5. Cc1ccc2cc(NC(=O)c3ccccc3)ccc2n1
6. O=C(Cc1ccccc1)NNC1CC(=O)N(c2ccc(Br)cc2)C1=O (stereo unspecified)
7. CCCCCCCc1nc2sc3c(c2c(=O)n1N)CC(C)(C)OC3
8. CC(C)NC(=O)CN1C(=O)c2ccccc2S1(=O)=O

assay / entry	1	2	3	4	5	6	7	8
TRPML1 ag	1.3	0.8	0.2	-0.3	nt	-0.6	0.8	1.6
PINK1 expr mod	9.1%	-0.1%	0.4%	15%	-0.2%	0.0%	15%	-0.5%
D2 agonist	-2.1	-2.9	-2.8	0.5	-1.8	-4.1	-2.9	7.8
TRPML1 blocker	nt	2	-16	5	nt	20	-4	-5
Six1-Eya2 blk	5	-2	12	0	-1	-17	4	-2
D2 potentiator	-10	-8	-10	-6	-5	-7	0	-3

Not a retest: an excerpt of the list.
1. COc1ccc(C(NC(=O)C2CCN(CCOc3ccc(Cl)cc3)CC2)c2cccs2)cc1 (stereo unspecified)
2. COc1ccc(-n2cnnc2SCc2csc(-c3ccccc3)n2)cc1
3. CCOC(=O)c1c(NC(=O)Cn2cnc3sc(C)c(-c4ccccc4)c3c2=O)sc(C)c1C
4. Cn1nc(-c2ccc(Cl)cc2)cc1NC(=O)Nc1ccccc1
5. Cc1ccc2cc(NC(=O)c3ccccc3)ccc2n1
6. O=C(Cc1ccccc1)NNC1CC(=O)N(c2ccc(Br)cc2)C1=O (stereo unspecified)
7. CCCCCCCc1nc2sc3c(c2c(=O)n1N)CC(C)(C)OC3

assay / entry	1	2	3	4	5	6	7
TRPML1 ag	1.3	0.8	0.2	-0.3	nt	-0.6	0.8
PINK1 expr mod	9.1%	-0.1%	0.4%	15%	-0.2%	0.0%	15%
D2 agonist	-2.1	-2.9	-2.8	0.5	-1.8	-4.1	-2.9
TRPML1 blocker	nt	2	-16	5	nt	20	-4
Six1-Eya2 blk	5	-2	12	0	-1	-17	4
D2 potentiator	-10	-8	-10	-6	-5	-7	0

The list goes on.
9. O=C(NCc1ccccc1C(F)(F)F)C1CCC(=O)N(CCCc2ccccc2)C1 (stereo unspecified)
10. COc1ccc(-c2[nH]ncc2/C=N\NC(=O)c2cccs2)cc1OC
11. CCc1ccccc1OCCCOc1ccc(OC)cc1
12. Cc1ccc(/C(O)=C2\C(=O)C(=O)N(C)C2c2ccc([N+](=O)[O-])cc2)cc1 (stereo unspecified)
13. Cc1cc(NS(=O)(=O)c2ccc(NC(=O)COc3c(C)cc(Br)cc3C)cc2)no1
14. Cc1ccc(C(=O)NC(=S)NNS(=O)(=O)c2ccccc2)cc1
15. COc1ccc(CCNC(=O)CSc2nc(O)c(C(C)C)c(=O)[nH]2)cc1OC
16. CC(C)COC(=O)NCCCOC(=O)Nc1ccccc1

assay / entry	9	10	11	12	13	14	15	16
TRPML1 ag	0.3	0.0	2.0	-0.7	0.4&0.9	0.7	-0.5	0.7
PINK1 expr mod	0.0%	-0.7%	4.4%	-0.5%	2.6%&0.5%	1.5%	-1.0%[38.3 µM]	-1.2%
D2 agonist	-3.2	-0.5	-0.1	1.5	-2.3	-4.8	-0.6	-6.1
TRPML1 blocker	29	11	-9	5	-3&-15	59	-2	-2
Six1-Eya2 blk	-16	?	79	-1	-8	-15	0	0
D2 potentiator	-5	-21	-10	-3	1	-12	0	-5

17. CC1(C)CC(=O)C2=C(C1)NC(=O)NC2c1ccc(Cl)cc1 (stereo unspecified)
18. CCOC(=O)Cn1nnnc1CN(Cc1cccs1)Cc1cc2cc(C)ccc2[nH]c1=O
19. COc1cc(/C=N\NC(=O)c2ccc(Cl)cc2)ccc1Oc1ccc([N+](=O)[O-])cn1
20. Cc1ccc(S(=O)(=O)N(C)CC(=O)Nc2ccc3c(c2)OCO3)cc1
21. O=C(CSc1ncn(-c2ccccc2)n1)Nc1nc(-c2ccccc2)cs1
22. Cc1ccc(C(=O)Nc2cccc(NC(=O)c3ccc(C)cc3)n2)cc1
23. CC1(C(=O)NS(=O)(=O)Cc2cccc(Cl)c2)CCN1C(=O)C1(c2ccc(Cl)cc2)CCC1 (stereo unspecified)
24. Cc1ccccc1C(=O)N=c1ccn(-c2nc3ccccc3nc2NS(=O)(=O)c2ccc(F)cc2)cc1

assay / entry	17	18	19	20	21	22	23	24
TRPML1 ag	1.5	0.3	-0.1	-0.9	0.2	1.5	-0.4	15
PINK1 expr mod	3.2%	-5.3%[38.3 µM]	-0.9%	1.8%	23%[38.3 µM]	4.3%	-0.9%	1.3%
D2 agonist	-2.3	0.4	0.3	-2.5	-5.1	2.6	0.5	-7.2
TRPML1 blocker	18	5	37	12	17	-11	-9	24
Six1-Eya2 blk	0	-2	-5	0	-1	-5	-5	-7
D2 potentiator	0	-7	-10	0	-10	-14	-7	-9

25. CCOC(=O)Nc1ccc2c(c1)N(C(=O)N(CC)CC)c1ccccc1CC2
26. Cc1ccc(S(=O)(=O)/N=C(\Sc2ccccc2)c2ccccc2)cc1
27. O=C(Nc1nc(COc2ccccc2)cs1)C12CC3CC(CC(C3)C1)C2
28. CCOC(=O)C1(CCCc2ccccc2)CCN(C(=O)COC)CC1
29. COc1ccccc1NC(=O)CCN1CC(C)OC(C)C1 (stereo unspecified)
30. C[C@@H](C(O)c1ccccc1)N(C)C(=O)CCc1ccccc1 (stereo partly specified)
31. Cc1ccc(NC(=O)CSc2ccccc2)cc1S(=O)(=O)N1CCCCC1
32. O=C(Nc1c2c(nn1-c1ccc(Cl)cc1)CS(=O)(=O)C2)c1cccc(Cl)c1

assay / entry	25	26	27	28	29	30	31	32
TRPML1 ag	9.4	-0.1	2.6	0.7	-0.6	0.0	0.1	0.3
PINK1 expr mod	-2.8%	1.9%[38.3 µM]	28%[38.3 µM]	-0.2%	-0.2%	-0.2%	1.4%	?
D2 agonist	-1.3	-1.4	-1.0	-0.7	-3.5	-1.3	2.2	nt
TRPML1 blocker	-15	-7	43	6	-1	11	-15	1
Six1-Eya2 blk	3	-6	31	-4	-4	4	1	nt
D2 potentiator	-18	-3	-2	-6	-6	-7	5	nt

33. CCCc1nn2c(=O)cc(COC(=O)c3ccco3)nc2s1
34. CC(=O)CCc1ccc(OCCCOc2cccc3cccnc23)cc1
35. CCOC(=O)c1c(C)[nH]c(C(=O)CSc2nnnn2-c2ccccc2)c1C
36. O=C(Nc1cccc(S(=O)(=O)NC2=NCCC2)c1)C1CCCCC1
37. O=C(c1ccc(Oc2ccccc2)cc1)c1nc2c(n1O)CCCC2
38. O=C1c2ccccc2CN1CCNS(=O)(=O)c1ccc2ccccc2c1
39. COCCSc1nnc(NC(=O)c2ccc(NC(C)=O)cc2)s1
40. O=C(COc1ccc(Cl)cc1)N(Cc1cccs1)C1CCS(=O)(=O)C1 (stereo unspecified)

assay / entry	33	34	35	36	37	38	39	40
TRPML1 ag	-0.6	0.6	0.1	nt	-0.4	0.5	0.4	0.5
PINK1 expr mod	0.3%	-1.2%	5.9%[38.3 µM]	0.7%	2.2%[38.3 µM]	-1.3%	1.0%	-0.5%
D2 agonist	nt	1.3	-1.5	-2.4	4.7	1.1	2.7	-0.2
TRPML1 blocker	-5	0	-10	nt	-9	23	9	-4
Six1-Eya2 blk	nt	4	2	5	-12	9	1	23
D2 potentiator	nt	-16	-5	1	1	-12	-6	2

Gathered by group: the compounds so far containing bromine
6. O=C(Cc1ccccc1)NNC1CC(=O)N(c2ccc(Br)cc2)C1=O (stereo unspecified)
13. Cc1cc(NS(=O)(=O)c2ccc(NC(=O)COc3c(C)cc(Br)cc3C)cc2)no1

assay / entry	6	13
TRPML1 ag	-0.6	0.4&0.9
PINK1 expr mod	0.0%	2.6%&0.5%
D2 agonist	-4.1	-2.3
TRPML1 blocker	20	-3&-15
Six1-Eya2 blk	-17	-8
D2 potentiator	-7	1

Remaining list, next part.
41. O=C(O)CSc1nnnn1C1CCCCC1
42. CCCCCc1nc2c(C#N)c(-c3ccc(Cl)cc3)ccn2n1
43. CC(C)c1nnc(NC(=O)CCN2C(=O)c3ccccc3C2=O)s1
44. CCc1nn(CC(=O)Nc2ccc(C)c(F)c2)c(=O)c2cc3cc(C)ccc3n12
45. NC(=O)c1ccc(NC(=O)CN2CCOCC2)cc1
46. Cc1ccc2c(CNC3CCC(C)CC3)c(C(=O)O)n(Cc3cccc(F)c3)c2c1 (stereo unspecified)
47. S=c1[nH]nc(-c2ccc3ccccc3n2)n1-c1ccc(Cl)cc1
48. CCOC(=O)c1ccc(NC(=S)Nc2ccc(Cl)cn2)cc1

assay / entry	41	42	43	44	45	46	47	48
TRPML1 ag	-0.1	3.7	-0.1	-1.1	0.1	3.0	0.0	0.2
PINK1 expr mod	2.5%	1.2%	nt	-0.6%	2.3%	-0.3%	-1.3%	9.8%
D2 agonist	-1.2	-1.0	-0.6	nt	0.2	nt	0.6	1.6
TRPML1 blocker	9	77	3	-14	-9	26	-1	7
Six1-Eya2 blk	3	13	3	nt	20	nt	0	-3
D2 potentiator	-7	-15	-3	nt	-13	nt	-7	-13
